Bioassay records as filed in PubChem BioAssay.
Six1-Eya2 inh: blocks human Six1 binding to Eya2; AlphaScreen GST-Six1/His-Eya2 binding, biochemical; active compounds read low; control for the full effect not named in the record; 0.56% of 360,000 active; activity change, % (test concentration not listed); in the data active = activity change below about -65%; inconclusive = about -30% to -65%; inactive = above about -30%; also: % is scaled to controls: 0 for no effect and ±100 for the full control effect
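AlphaScreen luminescence read after one hour at 37 °C in darkness. Pin-transferred compounds met GST-Six1 and His-Eya2 protein (5X stock 250 nM/500 nM) plus glutathione donor and Ni-chelate acceptor beads (5X, 50 ug/mL).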
D2 ag: agonists of human D2 dopamine receptor (beta-arrestin); activation, % (no concentration beside the values); AID 624465; P14416; DiscoveRx PathHunter D2 beta-arrestin, luminescence, 90 min; 100% = 57 uM dopamine signal; 0.084% of 360,000 active; in the data active = activation above about 40%; inconclusive = about 15% to 40%; inactive = below about 15%; also: compound concentration not given in the record; the text of the record calls up to 30% inactive
Target sequence (P14416 whole entry, looked up): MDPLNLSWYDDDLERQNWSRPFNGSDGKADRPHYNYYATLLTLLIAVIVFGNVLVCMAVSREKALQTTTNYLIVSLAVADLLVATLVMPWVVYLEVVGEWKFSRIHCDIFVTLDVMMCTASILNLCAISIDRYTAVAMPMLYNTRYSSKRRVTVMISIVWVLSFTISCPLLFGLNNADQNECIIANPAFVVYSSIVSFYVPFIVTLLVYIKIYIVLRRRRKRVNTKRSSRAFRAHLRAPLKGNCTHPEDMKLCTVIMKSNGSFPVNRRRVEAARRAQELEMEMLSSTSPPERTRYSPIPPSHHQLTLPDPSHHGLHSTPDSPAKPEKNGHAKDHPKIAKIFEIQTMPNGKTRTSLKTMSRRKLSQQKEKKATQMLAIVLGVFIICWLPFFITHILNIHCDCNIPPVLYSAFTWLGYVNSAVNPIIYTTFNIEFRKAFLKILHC
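Agonist mode: compounds alone added to overnight-plated D2 PathHunter cells for 90 min at 37 C, with 57 uM final dopamine (EC100) defining full response. Beta-arrestin recruitment detected by chemiluminescent reagent, read after 1 h at ambient temperature.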
PINK1 expr mod: PINK1 expression modulation; Potency, µM (highest dose often 76.6 µM), for the others: at the top dose activation (PINK1 increase), most hits filed as activators; 0.2% of 410,000 active; AID 624263; PINK1 immunofluorescence, high-content cytometry, 24 h; active = well fitted activation curve with a large enough effect; inconclusive = small, poorly fitted or top-dose-only effect; inactive = flat fitted curve, though single readings scatter; cell line not stated here;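 also: potency is read from the fitted curve at half-maximal effect; % of control where 0% means no effect; nearly all actives have a fitted effect of over 65% in size; a mitochondrial uncoupler was the plate control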
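Cells are seeded, rested 12 hours, then given compound at five concentrations or DMSO for 24 hours. After fixation, blocking and antibody staining, PINK1 amount and mitochondrial localization are scored; CCCP serves as control.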
TRPML1 agonist: activates the human TRPML1 channel | Q9GZU1 | TRPML1-expressing cells, Ca2+ dye fluorescence, FDSS; host cell line not named in the record; reference of the full effect not given here | activation, % (concentration not given with the values) | 0.12% of 410,000 active; in the data active = activation above about 50%; inconclusive = about 30% to 50%; inactive = below about 30%; also: 0% is about no effect; the text of the record puts the active cut at 80%
Target sequence (Q9GZU1 whole entry, looked up): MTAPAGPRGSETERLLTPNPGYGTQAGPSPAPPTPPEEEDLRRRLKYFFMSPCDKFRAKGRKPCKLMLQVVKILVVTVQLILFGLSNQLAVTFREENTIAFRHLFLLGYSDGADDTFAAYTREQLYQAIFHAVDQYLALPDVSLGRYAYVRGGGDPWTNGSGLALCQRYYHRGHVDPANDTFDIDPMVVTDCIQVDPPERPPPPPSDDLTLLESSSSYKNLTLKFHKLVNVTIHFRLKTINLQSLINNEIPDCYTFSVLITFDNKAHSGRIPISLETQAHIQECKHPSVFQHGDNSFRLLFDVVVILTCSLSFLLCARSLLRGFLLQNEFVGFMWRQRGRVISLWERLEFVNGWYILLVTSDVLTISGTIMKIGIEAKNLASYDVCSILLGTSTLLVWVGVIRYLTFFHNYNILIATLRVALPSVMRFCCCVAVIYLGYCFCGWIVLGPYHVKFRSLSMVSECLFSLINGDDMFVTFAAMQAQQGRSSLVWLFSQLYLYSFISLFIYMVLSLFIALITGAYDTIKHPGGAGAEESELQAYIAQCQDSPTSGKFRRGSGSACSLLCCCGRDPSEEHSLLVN
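Kinetic FDSS Ca2+ read in Tet-induced TRPML1-DL cells (ABD Ca8 dye plus quencher, 45-90 min RT loading): baseline, then compound, then 110 s agonist window; EC80 agonist 54-4 at 4uM final added afterwards for a 110 s antagonist window.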
D2 potentiator: positive allosteric modulators of human D2 dopamine receptor | potentiation, % (concentration not given with the values) | 0.23% of 360,000 active | P14416 | DiscoveRx D2 beta-arrestin cells, luminescence, 90 min; 100% = 57 uM dopamine signal; active = potentiation of 50% or more; inconclusive = 30% to 50%; inactive = 30% or less;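 also: compound concentration not given in the record; tested on top of an EC20 dose of dopamine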
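PathHunter D2 cells, attached overnight at 37 deg C, received compound in DMSO plus dopamine at EC20 (50 nM final) for 90 min at 37 deg C. Beta-arrestin recruitment was read as luminescence after 1 h with detection reagent at ambient temperature.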
CtBP-E1A blk: CtBP/E1A binding inhibition | AlphaScreen GST-E1A/His-CtBP binding, 1536-well; active compounds read low; control for the full effect not named in the record | activity change, % (test concentration not listed) | 0.49% of 340,000 active; in the data active means activity change below about -65%; inconclusive means about -30% to -65%; inactive means above about -30%; also: % is scaled to controls: 0 for no effect and ±100 for the full control effect
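AlphaScreen with 125 nM GST-E1A and 125 nM His-CtBP (5X stocks) in Tris pH 8.0, 300 mM NaCl, BSA, Tween 20, TCEP. Compounds preincubated 2 h at 37 deg C, then glutathione donor/nickel acceptor beads added for 1 h at 37 deg C in dark.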
The depositor's hits bear a star; ? = inconclusive; . = no result given; [ ] = remark or other dose.

SMILES	Six1-Eya2 inh	D2 ag	PINK1 expr mod	TRPML1 agonist	D2 potentiator	CtBP-E1A blk
Cc1cccc(N2CCN(C(=O)N3CCCCC3)CC2)c1C	0	3.2	2.8%	1.4	1	1
COc1ccc(C(=O)NC(=S)Nc2nc(-c3ccc(OC)c(Br)c3)cs2)cc1Br	7	0.1	1.5%	-0.2	14	6
CC(C)CC(NC(=O)c1ccccc1NC(=O)c1ccccc1)C(=O)O (configuration not stated)	-5	0.5	1.6%	0.9	-1	1
Cc1ccc([N+](=O)[O-])c(OCCN2C(=O)NC(C)(C)C2=O)c1	3	1.7	-0.2%	0.5	-5	.
COc1ccc(CC(=O)N(C)CC(=O)Nc2ccccc2Cl)cc1S(=O)(=O)N1CCOCC1	-8	-3.6	-0.8%	-1.2	-8	.
COc1ccc(CC(=O)Nc2cc(C)ccn2)cc1OC	-3	-1.1	1.6%	-0.6	-1	3
Cc1ccc(NC2CNC(=O)NC2=O)cc1C (configuration not stated)	13	1.9	1.3%	0.0	-3	1
O=C(N/N=C/c1c(O)ccc2ccccc12)c1ccc[n+](CCO)c1	-91*	-3.0	-0.3%	-0.7	-15	-90*
CC(CNC1CCCCC1)OC(=O)c1ccccc1 (configuration not stated)	-2	-4.6	-0.1%	-0.8	8	0
S=C(NCc1ccc(Cl)cc1)N1CCN(c2ccccn2)CC1	-1	2.5	2.0%	4.3	-14	4

Next part, starting with the last 5 of the part before.
SMILES	Six1-Eya2 inh	D2 ag	PINK1 expr mod	TRPML1 agonist	D2 potentiator	CtBP-E1A blk
COc1ccc(CC(=O)Nc2cc(C)ccn2)cc1OC	-3	-1.1	1.6%	-0.6	-1	3
Cc1ccc(NC2CNC(=O)NC2=O)cc1C (configuration not stated)	13	1.9	1.3%	0.0	-3	1
O=C(N/N=C/c1c(O)ccc2ccccc12)c1ccc[n+](CCO)c1	-91*	-3.0	-0.3%	-0.7	-15	-90*
CC(CNC1CCCCC1)OC(=O)c1ccccc1 (configuration not stated)	-2	-4.6	-0.1%	-0.8	8	0
S=C(NCc1ccc(Cl)cc1)N1CCN(c2ccccn2)CC1	-1	2.5	2.0%	4.3	-14	4
Cc1cccc(C(C)C)c1NC(=O)CN(C)Cc1cccc(F)c1	10	-4.3	-0.8%	0.3	-10	.
Cc1ccc(S(=O)(=O)N[C@@H](Cc2ccccc2)C(=O)CCl)cc1	-14	-6.6	-0.8%	2.1	-15	0
COc1cc(C)c(CN2CCC(n3nccc3NC(=O)C3CC3)CC2)cc1C	-2	-0.5	-2.6%	0.1	-30	2
COc1ccc(CCNS(=O)(=O)c2cc(C(=O)O)c(Cl)cc2Cl)cc1	-1	-2.4	1.0%	0.9	-20	.
COC(=O)c1ccc(NC(=O)COC(=O)CCC2CCCC2)cc1	9	-8.0	0.9%	1.5	-1	8
Nc1sc2c(c1C(=O)NC1CC1)CCCC2	-5	15	1.1%	2.2	1	-9
C=CC[C@@H](CC(=O)N(CCO)Cc1ccccc1)C(=O)N[C@H](COC(=O)[C@@H](CC=C)CC(=O)OC(C)(C)C)Cc1ccccc1	-1	2.3	9.1%	0.8	.	-1
CCn1ncc(CNC(=O)CCCSc2nc(-c3ccco3)cc(C(F)(F)F)n2)c1C	-1	-2.4	-0.6%	2.2	4	-4
CCCS(=O)(=O)c1c(S(=O)(=O)CCC)c2cc(-c3ccncc3)ccn2c1C(=O)OC	-3	2.1	4.7%	-0.3	-3	-2
O=C1NCCN1Cc1ccc(Cl)cc1	-8	0.5	-0.5%	0.6	-8	-14
CCCCc1c(-c2cccc(Br)c2)ncn1CCc1ccccc1OC	-13	.	-1.3%	1.2	.	0
COc1ccc(NS(=O)(=O)c2ccc(OC)c(OC)c2)cc1OC	5	1.7	0.8%	-0.9	7	0
CCOC(=O)N1CCN(C(=O)c2cccc(S(=O)(=O)Nc3ccc(Br)cc3)c2)CC1	-1	-3.5	3.4%	3.2	-8	11
COC(=O)c1cc(OC)c(OC)cc1NC(=O)Nc1ccc(OC)cc1OC	-7	-0.1	0.4%[38.3 µM]	0.1	4	-13
CCNC(=S)N1CCN(Cc2ccc3c(c2)OCO3)CC1	-2	1.8	1.2%	1.6	-9	7
CC(=O)c1cccc(NC(=O)N2CCCC2C(=O)Nc2cccc(C)c2C)c1 (configuration not stated)	2	-4.5	1.5%	0.1	-6	8
COc1cc(OC)nc(-n2ncc(OC)c(Br)c2=O)n1	6	-1.0	-1.4%	0.6	-17	5
Cc1ccc(C)c(C(=O)Nc2c(C(N)=O)oc3ccccc23)c1	-9	2.5	12%	1.9	-1	-5
Cc1ccccc1C(=O)N1[C@@H](C(C)C)COc2cc(Br)ccc2S1(=O)=O	4	-4.5	2.8%	0.2	-3	1
CN(C)/C=N/c1nc2nccc(-c3ccccc3)n2n1	-9	-12	1.9%	0.3	-3	.
COc1ccc(/C=N/NC(=O)c2sc3nc(C)cc(C)c3c2N)cc1	-4	-1.2	13%	0.0	5	-10
CCc1cccc(NC(=O)NC(=O)Cn2nnc(C(=O)OC)c2C(=O)OC)c1	1	-7.2	-2.2%	1.6	0	0
COC(=O)c1nnn(-c2nonc2N)c1CSc1ccc(Cl)cc1	12	3.9	11%	2.5	-3	-2
Cc1cccc(C2C3=C(Nc4[nH]n(-c5ccccc5)c(=O)c42)c2ccccc2C3=O)c1 (configuration not stated)	-11	-3.5	-0.5%	0.4	-2	-17
CC(NC=O)c1nc2ccccc2n1CCc1ccccc1 (configuration not stated)	-3	2.7	0.5%	.	2	.
CC1(c2ccccc2Cl)NC(=O)N(CC(=O)NCCC2=CCCCC2)C1=O (configuration not stated)	7	4.5	-0.5%	0.0	-39	-5
Cn1c(=O)c2sccc2n(Cc2ccc(Br)cc2)c1=O	2	11	7.9%	0.4	5	6
COc1ccccc1NC(=O)NCCN1CCCCC1	6	2.8	-0.4%	.	-44	.
COc1cc(NC(=O)NC(C)(C(F)(F)F)C(F)(F)F)cc(OC)c1OC	6	1.3	2.9%	-0.3	0	5
NCCCCC(=O)O	2	-8.3	1.6%	-0.1	-10	8
CS(=O)(=O)Nc1ccc2c(c1)[C@@H]1C[C@@H](CC(=O)NCc3cccnc3)O[C@H](CO)[C@@H]1O2	0	-1.4	0.7%	-0.2	2	4
CCn1c(SCC(=O)N/N=C/c2ccc(C)s2)nc2ccccc21	-13	-1.9	5.9%	1.4	-15	-8
O=C(Nc1nnc(Cc2ccccc2)s1)c1ccco1	6	1.4	-0.6%[38.3 µM]	-0.3	-9	8
COc1cc(/C=N/NC(=O)Cc2csc(N3CCOCC3)n2)cc(OC)c1O	-25	?	-0.1%	1.6	-9	.
COC(=O)C1(C)NC(c2ccc(OC)cc2)C2C(=O)N(c3ccccc3)C(=O)C21 (configuration not stated)	1	4.7	0.0%	-0.2	-11	.
O=C1C2C3c4ccccc4C(c4ccccc43)C2C(=O)N1c1ccncc1 (configuration not stated)	14	-3.7	3.2%	0.7	0	-1
CC(C)(C)OC(=O)N1CCCC(C(=O)Nc2ccc(C(=O)NC3CC3)cc2)C1 (configuration not stated)	5	-0.3	1.3%	3.0	-2	4
CCOC(=O)c1c(C)[nH]c(C(=O)COC(=O)CCS(=O)(=O)c2ccc(C)cc2)c1C	5	1.7	4.6%	-0.5	1	3
COc1ccc(NC(=O)Nc2cc(C)cc(C)c2)cn1	15	3.7	-0.3%	-0.2	-6	5
Nc1cc(=O)nc(SCC(=O)Nc2ccccc2Cl)n1-c1ccccc1	0	5.1	0.1%	-0.1	-2	.
CCCCn1nc2cc(C(=O)NCc3ccco3)ccc2c1OCC	-4	2.8	1.3%	-0.7	12	.
CC1(O)C(=O)c2ccccc2N(c2ccccc2)C1=O (configuration not stated)	5	-0.5	-0.3%	-0.2	-8	11
S=c1[nH]nc(-c2ccc3ccccc3n2)n1-c1cc(Cl)cc(Cl)c1	-13	?	5.6%	0.4	3	-30
c1coc(Cn2nnnc2CN2CCN(C3CCCC3)CC2)c1	-2	-2.0	0.2%	-0.8	-25	3
Nc1nc(Nc2ccccc2)nc(NCc2ccccc2)c1[N+](=O)[O-]	-23	-6.6	2.7%	1.5	-7	-20
CCc1ccc(S(=O)(=O)NCc2cn3ccccc3n2)s1	2	1.2	1.1%	-1.5	-16	-1
COc1ccc(C(=O)NCC2COc3ccccc3O2)cc1S(=O)(=O)N1CCOCC1 (configuration not stated)	-3	2.4	3.1%	-0.5	-3	-4
CC(C)CN(C(=O)Cn1nnc(-c2ccc(Cl)cc2)n1)C1CCS(=O)(=O)C1 (configuration not stated)	8	-4.6	1.5%	0.3	-16	5
CS(=O)(=O)c1ccc2nc(NC(=O)CN3C(=O)NC4(CCCC4)C3=O)sc2c1	5	-7.5	0.1%	0.0	-20	24
COc1ccc(C(=S)N2CCN(c3cccc(Cl)c3)CC2)cc1	-27	-1.2	0.2%	1.1	-5	-23

Full records as entered above. Screens in order: Six1-Eya2 inh	D2 ag	PINK1 expr mod	TRPML1 agonist	D2 potentiator	CtBP-E1A blk
Record of CN(C)/C=N/c1nc2nccc(-c3ccccc3)n2n1 : -9	-12	1.9%	0.3	-3	.
Record of COc1ccc(CC(=O)N(C)CC(=O)Nc2ccccc2Cl)cc1S(=O)(=O)N1CCOCC1 : -8	-3.6	-0.8%	-1.2	-8	.

(further entries)
SMILES	Six1-Eya2 inh	D2 ag	PINK1 expr mod	TRPML1 agonist	D2 potentiator	CtBP-E1A blk
O=C1CC(Cc2ccccc2)C(=O)N1Cc1ccco1 (configuration not stated)	-2	-4.8	1.0%	0.6	-1	2
COc1ccc(-n2nc(C(=O)NCC(=O)N3CCN(Cc4ccccc4)CC3)c3ccccc3c2=O)cc1OC	14	1.9	0.3%	2.1	6	1
COCc1cc(C)nc(OCC(=O)N/N=C/c2ccc(OC)c(O)c2)c1C#N	-8	-3.8	2.6%	0.2	-3	.
CC(C)(C)C1CCC(CN2CCC(CN3C(=O)C(=O)NC[C@@H]3Cc3ccccc3)CC2)CC1 (some centres not stated)	4	-2.5	2.6%	-0.5	-14	1
C(=N\Nc1nc(N2CCOCC2)nc(N2CCOCC2)n1)/c1cccnc1	7	-1.5	-4.3%[38.3 µM]	-0.3	-12	1
CC(C)COc1ccc(/C(O)=C2/C(=O)C(=O)N(CCN(C)C)C2c2ccncc2)cc1 (configuration not stated)	0	-0.6	-1.4%	-0.3	11	10
Cc1cc(C)nc(NCCO)n1	5	-1.9	0.3%	-0.7	0	-10
O=c1c(Cl)c(N2CCOCC2)cnn1-c1nc2ccccc2[nH]1	-7	-5.3	1.3%	-0.3	1	5
COc1ccc(/C=C/C(=O)N(Cc2ccccc2)c2ccccn2)cc1OC	1	3.1	0.8%	-0.5	-1	.
COc1cc(C2=NOC(C(=O)Nc3cccnc3)C2)cc(OC)c1OC (configuration not stated)	14	-2.2	0.7%	1.7	-17	-2
CC(NC(=O)C(C)(C)C)C(c1cccs1)N1CCOCC1 (configuration not stated)	5	9.3	3.5%	1.0	-1	8
O=S(=O)(NCc1ccccc1)c1ccc2ccccc2c1	2	-0.7	-0.6%	1.8	-2	7
CNC(=O)N(O)C1N(/N=C/c2cc(Br)ccc2O)C(=S)SC1(C)C (configuration not stated)	?	59*	2.4%	0.4	12	.
